Bioassay records from PubChem.
D2 PAM = human D2 receptor positive allosteric modulation; AID 624464; DiscoveRx D2 beta-arrestin cells, luminescence, 90 min; 100% = 57 uM dopamine signal; P14416; actives 0.23% (n = 360,000); potentiation, % (concentration not given with the values); active = potentiation of 50% or more; inconclusive = 30% to 50%; inactive = 30% or less;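 further: compound concentration not given in the record; tested on top of an EC20 dose of dopamine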
Target sequence (P14416 whole entry, looked up): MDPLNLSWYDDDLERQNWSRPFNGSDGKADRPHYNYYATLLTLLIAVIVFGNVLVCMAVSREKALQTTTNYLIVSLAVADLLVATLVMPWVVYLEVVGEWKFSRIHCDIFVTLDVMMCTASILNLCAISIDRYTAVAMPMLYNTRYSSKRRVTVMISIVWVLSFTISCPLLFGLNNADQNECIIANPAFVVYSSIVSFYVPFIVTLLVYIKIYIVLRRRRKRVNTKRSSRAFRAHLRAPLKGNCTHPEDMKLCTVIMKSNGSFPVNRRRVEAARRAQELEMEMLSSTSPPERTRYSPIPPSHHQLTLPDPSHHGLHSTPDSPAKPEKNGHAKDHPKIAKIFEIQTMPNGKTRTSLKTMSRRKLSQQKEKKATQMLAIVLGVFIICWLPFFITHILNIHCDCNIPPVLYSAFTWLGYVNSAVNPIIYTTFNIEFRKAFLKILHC
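D2 cells co-treated with compound plus 50 nM dopamine (EC20) for 90 min at 37 deg C to detect potentiation. Beta-arrestin recruitment was read as enzyme-fragment luminescence after 1 h at ambient temperature. Full response was set by 57 uM dopamine.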
gsp antagonist = antagonizes gsp, the McCune-Albright syndrome mutation; gsp-mutant cells, cAMP HTRF, 30 min; control for the full effect not named in the record; AID 624288; actives 0.4% (n = 340,000); Potency, µM (highest dose often 76.9 µM), without a hit: at the top dose activity change, negative = inhibition, hits mostly inhibitors; active = falling curve of any shape with a large fitted effect; inconclusive = falling curve, mostly with a smaller effect; inactive = flat or rising curve; cell line not stated here;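 further: intracellular cAMP measured with PDE inhibitor Ro 20-1724 present during compound exposure; potency means the concentration at half of the fitted maximal effect; on the % scale 0 is the no-effect control and ±100 the full control effect; nearly all actives have a fitted effect of over 65% in size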
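Cells in G418 medium, seeded 16-24 h, 37C; buffer exchange to DPBS + 1 mM CaCl2, 0.5 mM MgCl2, 0.05% BSA; cpds in DMSO + […] (300 uM stock), 30 min 37C; HTRF cAMP detection.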
gsp agonist = gsp mutant agonism; gsp mutant cells, cAMP HTRF, 30 min; control for the full effect not named in the record; Potency, µM (doses to about 76.9 µM), for inactives: at the top dose activation (cAMP increase), most hits filed as activators; actives 0.13% (n = 340,000); active = well fitted activation curve with a large enough effect; inconclusive = small, poorly fitted or top-dose-only effect, or another doubt; inactive = no such curve, though single readings can be large or run the other way; cell line not stated here;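 further: phosphodiesterase inhibitor Ro 20-1724 added with compounds to block cAMP breakdown; potency means the concentration at half of the fitted maximal effect; nearly all actives have a fitted effect of over 60% in size; about a fifth of the inactives were tested at one dose only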
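Cells in DMEM/10% FBS with G418 were pretreated with compounds in DMSO plus […] (300 uM stock) for 30 min at 37C. cAMP was measured by HTRF (cAMP-d2 plus anti-cAMP antibody-K) after 30 min at room temperature.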
Sfp inh = Sfp phosphopantetheinyl transferase inhibition | Potency, µM, for the others: max response, negative = inhibition, actives largely listed as inhibitors | Q9F4F7 | Biochemical Sfp PPTase activity, qHTS | actives 3.5% (n = 310,000) | AID 1490; active means well fitted inhibition curve with a large enough effect; inconclusive means small, poorly fitted or top-dose-only effect, or another doubt; inactive means no such curve, though single readings can be large or run the other way;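 further: the enzyme is Sfp with the accession as filed and its product quenches rhodamine fluorescence; potency means the concentration at half of the fitted maximal effect; 0% = enzyme reaction without inhibitor and -100% = no enzyme wells; top concentration of the series not given in the record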
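Fluorescence-quenching assay: 15 nM Sfp-PPTase preincubated 15 min at room temperature with compound, then 5 uM rhodamine-CoA and 12.5 uM BHQ-2-labelled YbbR peptide added. Fluorescence (ex 525/em 598 nm) read at start and after 30 min; difference gives rate.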
Menin-MLL FL inh = inhibitors of human menin-MLL interaction, wild-type MLL peptide | Fluorescence polarization, fluorescein-MLL peptide displacement from menin | FP activity change, % at 61.4 µM | 290,000 tested, under 10 active; inconclusive = falling polarisation curve, or a change in total fluorescence; inactive = total fluorescence flat and polarisation flat or rising; no compound was filed as active; the % refers to the polarisation; negative = inhibition;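 further: % of control where 0% means no effect; inhibitors lower the polarisation; unlabelled MLL peptide was the positive control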
TRPV1 potentiator = human TRPV1 potentiation. actives 0.02% (n = 320,000). TRPV1-expressing cells, Fluo-8 calcium influx, capsaicin EC20 potentiation; host cell line not named in the record; control for the full effect not named in the record. Q8NER1. potentiation, % at 8.33 µM; active means potentiation above 80%; inconclusive means 30% to 80%; inactive means below 30%; further: 0% is about no effect
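TRPV1-expressing cells were cultured overnight at 35.5C and loaded with Fluo-8 calcium dye for 40 to 90 min at room temperature. After a 10 s baseline, compound was added and calcium influx was read kinetically for 3 min (ex 480/em 520 nm).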
ClpP mod = qHTS Assay for Activators of ClpP | ATP-dependent Clp protease proteolytic subunit (Bacillus subtilis (strain 168)), P80244 | purified B. subtilis ClpP, FRET peptide cleavage, 20 min | Potency, µM (highest dose often 57.5 µM), for inactives: top-dose activity change, negative = active | actives 1.9% (n = 340,000) | AID 651965, 2013; active = well fitted falling curve with a large enough effect; inconclusive = small, poorly fitted or top-dose-only effect; inactive = no such curve, though single readings can be large or run the other way; further: potency means the concentration at half of the fitted maximal effect; the source files actives as falling curves though it sought activators and does not explain the sign; nearly all actives have a fitted effect of over 65% in size; many hits overshoot -100%
Target sequence (P80244 whole entry, looked up): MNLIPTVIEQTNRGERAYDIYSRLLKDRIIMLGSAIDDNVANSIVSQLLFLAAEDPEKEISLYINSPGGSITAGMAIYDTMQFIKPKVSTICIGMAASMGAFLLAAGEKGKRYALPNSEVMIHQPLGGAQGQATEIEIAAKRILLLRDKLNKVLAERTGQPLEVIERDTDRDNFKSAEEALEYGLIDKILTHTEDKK
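ClpP 10 microg/mL final, pH 8 Tris/KCl buffer with BSA, glycerol, Tween-20; compound pinned in; FRET-FV substrate; RT 20 min; Ex320/Em430; ΔFRET vs ADEP 5.8 microM, DMSO, no enzyme.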
The depositor's hits bear a star; ? = inconclusive; · = not tested or not shown; & = joins results of further samples; [ ] = another dose, or the depositor's remark. Compounds as they come; any-hit rate near 5.1%.

[1] O=C(c1ccccc1)N1CCCCC1
[2] COc1cccc(C(=O)Cn2c(N3CCCCC3)nc3c2c(=O)n(C)c(=O)n3C)c1
[3] O=C(N=C1SC2CS(=O)(=O)CC2N1Cc1ccc(F)cc1)C1CC1 (stereo unspecified)
[4] C/C(=N\Nc1ccc(Cl)nn1)c1ccccc1O
[5] Cc1ccc(O)c(CN(C)Cc2cc(C)ccc2O)c1
[6] CC(=O)Nc1ccc(S(=O)(=O)Nc2c(C)n(C)n(-c3ccccc3)c2=O)cc1

assay / entry	1	2	3	4	5	6
D2 PAM	-16	-4	-8	-10	-40	-9
Menin-MLL FL inh	·	0.3	4.4	·	·	2.7
gsp agonist	·	9%	-27%	-3%[15.4 µM]	-38%[inhibitor]	-2%
TRPV1 potentiator	·	-10	6	·	·	-6
gsp antagonist	4%	-11%	-2%	-7%	1%	-9%
ClpP mod	2.1%	-1.0%	2.4%	·	-9.2%	2.5%
Sfp inh	·	15%	20%	·	·	-6%

[7] COc1ccc(C2/C(=C(/O)c3ccccc3)C(=O)C(=O)N2C)cc1 (stereo unspecified)
[8] CC(=O)N1c2ccc([N+](=O)[O-])cc2NC(=O)CC1C (stereo unspecified)
[9] Cn1c(NC(=O)c2ccccc2Br)cc(=O)n(C)c1=O
[10] CCOc1ccc(N2CC(C(=O)NCCCc3ccccc3)CC2=O)cc1 (stereo unspecified)
[11] CCc1ccc(NCc2nc(-c3ccccc3)no2)cc1
[12] Cc1cc(NS(=O)(=O)c2ccc(NC(=O)N[C@H](C(=O)O)C(C)C)cc2)no1

assay / entry	7	8	9	10	11	12
D2 PAM	11	-26	-4	9	3	-10
Menin-MLL FL inh	3.6	1.3	0.3	·	3.9	0.0
gsp agonist	-8%	3%	?	-45%[inhibitor]	?	26%
TRPV1 potentiator	4	11	9	5	0	10
gsp antagonist	2%	17%	7%	8%	-13%	2%
ClpP mod	0.5%	-1.1%	2.6%	-5.1%	-5.9%	-0.6%
Sfp inh	3%	-3%	20%	·	-1%	27%

[13] O=c1ccccn1CCOc1ccccc1Cl
[14] COCCCN(C(=O)c1cc(C)oc1C)c1c(N)n(CC(C)C)c(=O)[nH]c1=O
[15] CC(C)CNC(=S)NNC(=O)c1ccc(OC(F)F)cc1
[16] O=C(NCCCN1CCOCC1)c1cccs1
[17] C/C(=N/NC(=O)c1cc(-c2ccc(Cl)s2)[nH]n1)c1ccco1
[18] CCNc1nc(NC(N)=S)nc(NC(C)(C)C)n1

assay / entry	13	14	15	16	17	18
D2 PAM	-8	-2	-14	-9	-16	-7
Menin-MLL FL inh	0.7	·	-1.4	-4.2	6.2	1.4
gsp agonist	-2%	-11%	?	1%	-4%[15.4 µM]	-11%[15.4 µM]
TRPV1 potentiator	20	-5	4	2	20	7
gsp antagonist	7%	13%	-3%	8%	-11%	·
ClpP mod	-4.7%	-0.1%	6.6%	0.2%	·	·
Sfp inh	0%	·	20%	1%	-1%	32µM*

Retrieved one by one from above, 6 records:
[17] C/C(=N/NC(=O)c1cc(-c2ccc(Cl)s2)[nH]n1)c1ccco1
[13] O=c1ccccn1CCOc1ccccc1Cl
[16] O=C(NCCCN1CCOCC1)c1cccs1
[14] COCCCN(C(=O)c1cc(C)oc1C)c1c(N)n(CC(C)C)c(=O)[nH]c1=O
[15] CC(C)CNC(=S)NNC(=O)c1ccc(OC(F)F)cc1
[18] CCNc1nc(NC(N)=S)nc(NC(C)(C)C)n1

assay / entry	17	13	16	14	15	18
D2 PAM	-16	-8	-9	-2	-14	-7
Menin-MLL FL inh	6.2	0.7	-4.2	·	-1.4	1.4
gsp agonist	-4%[15.4 µM]	-2%	1%	-11%	?	-11%[15.4 µM]
TRPV1 potentiator	20	20	2	-5	4	7
gsp antagonist	-11%	7%	8%	13%	-3%	·
ClpP mod	·	-4.7%	0.2%	-0.1%	6.6%	·
Sfp inh	-1%	0%	1%	·	20%	32µM*

Additional entries.
[19] CCCn1nnc(NC(=O)c2cccnc2Cl)n1
[20] Cc1ccccc1NC(=O)NCCCN1CCCC1=O
[21] O=C(Nc1nnc(S(=O)(=O)N2CCN(c3ccc(F)cc3)CC2)s1)c1ccccc1
[22] NC(=O)C1CCN(C(=O)C2(NC(=O)Nc3cccc(F)c3)CCCCC2)CC1
[23] Clc1ccccc1Cn1nnc2c(N3CCOCC3)nc(C3CC3)nc21
[24] Cc1cc(C)n(C(=O)COc2ccccc2C)n1

assay / entry	19	20	21	22	23	24
D2 PAM	-17	-6	-6	-5	-2	-4
Menin-MLL FL inh	-6.6	-1.0	-0.9	0.0	0.7	1.1
gsp agonist	14%	-6%	?	-6%	-28%	-26%
TRPV1 potentiator	-1	-3	1	-3	4	17
gsp antagonist	3%	2%	-24%	11%	1%	1%
ClpP mod	-6.7%	-1.4%	-3.4%	·	-8.2%	-5.3%
Sfp inh	4%	2%	0%	11%	-20%	20%

[25] COc1ccc(C=O)cc1Cn1c(=O)n(CCC(=O)NCc2ccco2)c(=O)c2sccc21
[26] CN1C(=O)[C@H]2[C@@H](/C=C/c3ccccc3)N3C(=O)CN(CC4CC4)C(=O)[C@@]3(C)[C@H]2C1=O
[27] COC(=O)COc1ccc(S(=O)(=O)Nc2ccc(NC(C)=O)cc2)cc1
[28] CC(C)N(CCc1ccncc1)C(=S)Nc1cccc(Cl)c1
[29] C=CCCN(C1CCCC1)S(=O)(=O)c1ccccc1Br
[30] COc1ccc2c(c1)C(=O)N(c1ccccc1OC)C(=O)C2

assay / entry	25	26	27	28	29	30
D2 PAM	-8	-12	-2	-6	-6	12
Menin-MLL FL inh	0.7	-0.3	-8.0	0.4	-3.5&6.6	4.0
gsp agonist	3%[15.4 µM]	22%	-15%	16%	·	?
TRPV1 potentiator	6	-14	3	5	-3	29
gsp antagonist	-4%	7%	-13%	-4%	0%	4%
ClpP mod	·	-3.1%	-1.0%	·	-1.3%	-3.5%
Sfp inh	2%	-3%	-10%	-8%	2%&12%	1%

[31] CCc1ncc(C)[nH]1
[32] CC1CCCCC1NC(=O)CN(C)S(=O)(=O)c1cccc2cccnc12 (stereo unspecified)
[33] COc1ccc(OC)c(NC(=O)Nc2ccc(O)c3ccccc23)c1
[34] COc1ccc(-c2ccnc(-c3ccncc3)n2)cc1
[35] Cc1ccc(C(=O)NC(=S)N2CCN(C)CC2)cc1Br
[36] COc1cc(CNc2ccc(S(N)(=O)=O)cc2)ccc1OCC(=O)NC1CCCCC1

assay / entry	31	32	33	34	35	36
D2 PAM	-9	-1	25	-5	-3	-2
Menin-MLL FL inh	2.0	-2.3	·	0.5	0.2	-1.7
gsp agonist	·	3%[15.4 µM]	-4%[15.4 µM]	37%	13%	-1%[15.4 µM]
TRPV1 potentiator	14	6	·	8	7	-2
gsp antagonist	1%	5%	-16%	0%	-8%	-24%
ClpP mod	0.4%	·	·	·	1.2%	·
Sfp inh	18%	2%	·	13%	-1%	16%

[37] CCOC(=O)C(=O)NNc1ccc(F)cc1
[38] CCOc1ccc(S(=O)(=O)N2CCN(c3ncccn3)CC2)cc1
[39] O=c1[nH]nc(SC2CCCCC2)c(=O)[nH]1
[40] O=S(=O)(c1cccc(C(F)(F)F)c1)N1CCC(c2cc(-c3cccc4ccccc34)n[nH]2)CC1
[41] C#CCOc1ccc(CNC[C@H]2O[C@@H](n3ccc(N)nc3=O)[C@H](O)[C@@H]2O)cc1
[42] Nc1ccc(S(=O)C(F)(F)F)cc1 (stereo unspecified)

assay / entry	37	38	39	40	41	42
D2 PAM	-5	0	-18	1	-4	-2
Menin-MLL FL inh	3.9	0.3	·	2.9	·	0.6
gsp agonist	8%[15.4 µM]	-44%[inhibitor]	27%	-23%	-20%	14%[15.4 µM]
TRPV1 potentiator	-37	24	·	-4	·	4
gsp antagonist	-19%	2%	-9%	6%	·	7%
ClpP mod	1.3%	·	1.8%	?	-0.7%	·
Sfp inh	?	2%	·	12%	·	8%

[43] COC(=O)c1ccc(CNC(=O)COC(=O)c2cc(Cl)nc(Cl)c2)cc1
[44] CC(C)Cc1ccc(S(=O)(=O)Nc2ccc3[nH]c(=O)[nH]c3c2)cc1
[45] COc1ccccc1/C=C1\SC(=S)N(CCC(=O)Nc2ccc(C(=O)O)c(O)c2)C1=O
[46] Clc1ccc(-c2nnc3n2CCCC3)cc1Cl
[47] O=C(c1cccc(Cl)c1)N1CCC(=O)N(C(CO)Cc2ccccc2)CC1 (stereo unspecified)
[48] COc1ccc(-n2c(SCC(=O)Nc3nccs3)nc3c(c2=O)SCC3)cc1
[49] COc1ccccc1N1CCN(C(=S)Nc2cccc(C)c2)CC1
[50] CCOC(=O)C1=C(COC(=O)Cc2c(F)cccc2Cl)NC(=O)NC1C (stereo unspecified)
[51] COc1ccc(N2C(=O)CCC(C(=O)N(C)C3CCCCC3)C2c2ccc(OC)c(OC)c2)cc1 (stereo unspecified)

assay / entry	43	44	45	46	47	48	49	50	51
D2 PAM	-8	-7	-7	-2	-9	-3	-9	1	5
Menin-MLL FL inh	-7.5	0.4	14	-0.5	·	0.5	1.5	·	2.8
gsp agonist	-3%[15.4 µM]	9%	24%[15.4 µM]	-1%	10%	-18%	8%	-8%	1%
TRPV1 potentiator	7	8	-10	-5	·	-17	4	-18	·
gsp antagonist	-7%	13%	4%	3%	7%	-7%	-1%	14%	-1%
ClpP mod	-0.2%	1.0%&-0.7%	·	-0.9%	-0.3%	3.3%	·	-2.5%	-1.7%
Sfp inh	7%	10%	-10%	8%	·	3%	-9%	·	1%
